# Bioassay records (PubChem BioAssay)
# RECQ1 inh – blocks DNA unwinding by human RECQ1 | P46063 | RECQ1 DNA unwinding, red fluorescence kinetic read | Potency, µM (top dose mostly 57.3 µM), for inactives: at the highest dose activity, negative = inhibition, most hits filed as inhibitors | 0.54% of 240,000 active | AID 2549;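 note: plate controls were vehicle for no effect and no enzyme for full effect; nearly all actives have a fitted effect of over 30% in size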
# Target sequence (P46063 whole entry, looked up): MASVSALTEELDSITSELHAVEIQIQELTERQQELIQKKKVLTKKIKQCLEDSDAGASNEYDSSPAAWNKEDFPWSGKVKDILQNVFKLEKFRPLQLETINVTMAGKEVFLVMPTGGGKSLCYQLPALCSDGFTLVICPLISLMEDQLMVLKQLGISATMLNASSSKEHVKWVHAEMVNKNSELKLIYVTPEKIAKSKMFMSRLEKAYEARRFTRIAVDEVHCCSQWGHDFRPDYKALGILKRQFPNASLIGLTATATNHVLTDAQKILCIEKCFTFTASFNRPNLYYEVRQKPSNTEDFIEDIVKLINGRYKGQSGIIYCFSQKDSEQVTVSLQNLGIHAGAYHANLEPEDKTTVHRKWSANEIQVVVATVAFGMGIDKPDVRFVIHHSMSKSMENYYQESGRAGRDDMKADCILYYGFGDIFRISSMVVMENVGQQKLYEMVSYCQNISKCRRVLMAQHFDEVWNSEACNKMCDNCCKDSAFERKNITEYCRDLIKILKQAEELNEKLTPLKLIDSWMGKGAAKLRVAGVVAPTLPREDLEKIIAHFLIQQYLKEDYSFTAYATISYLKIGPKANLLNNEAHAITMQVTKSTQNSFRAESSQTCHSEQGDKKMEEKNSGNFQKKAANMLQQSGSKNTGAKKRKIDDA
#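 RECQ1T1 50 nM; forked duplex (20 bp + 30-nt ss tails) 200 nM, ATP 2 mM final; pH 8.0, 2 mM MgCl2, 2.5 ug/ml poly(dI-dC); 15 min compound preincubation; discontinuous kinetic read over 2 h at RT.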
# aGlu spleen mod – inhibits or activates alpha-glucosidase in human spleen homogenate | P10253 | human spleen homogenate, 4-MU-alpha-glucoside fluorescence | Potency, µM (highest dose often 79.9 µM), for the others: at the top dose activity change, negative = inhibition, actives largely listed as inhibitors | 0.006% of 240,000 active | AID 2112;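 note: 0% = enzyme with vehicle and -100% = no enzyme basal signal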
#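 Compounds were titrated against alpha-glucosidase in spleen homogenate at pH 5.0, with 1 mM 4-methylumbelliferyl substrate for 40 min at 37 C. Reactions were quenched with pH 10 NaOH/glycine and fluorescence measured.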
# GAA inh – alpha-glucosidase (human) inhibition | purified human GAA, 4-MU-alpha-glucoside fluorescence | Potency, µM (highest dose often 76.9 µM), inactives show at the top dose activity change, negative = inhibition, hits mostly inhibitors | 0.005% of 200,000 active;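 note: plate controls were uninhibited enzyme wells for no effect and no-enzyme background for full effect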
#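 AC50 values come from Hill fits of compound titrations (up to 77 uM) against 4 nM human enzyme. Substrate 4-methylumbelliferyl-alpha-D-pyranoside at 400 uM, pH 5.0 citrate buffer, 20 min room temperature; fluorescence Ex 365/Em 440 after alkaline stop.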
# TR SRC2 fluor cs – alters Texas Red total fluorescence, flagging assay interference; TRb/SRC2 Texas Red total fluorescence interference; Potency, µM (highest dose often 106 µM), for the others: at the top dose fluorescence change, negative = quenching; 0.29% of 280,000 active; active = well fitted curve in either direction with a large enough effect
#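 Human TRb ligand-binding domain at 0.6 uM with 20 nM Texas Red SRC2 peptide in Tris buffer containing 1 uM T3 and 5% DMSO, incubated with compound 5 h at ambient temperature. Total fluorescence (555/632 nm) calculated as parallel + 2 × perpendicular.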
# TRb SRC2 PPI – disrupts binding of human TR beta to SRC2. P10828. TRbeta-SRC2 peptide binding, fluorescence polarization; receptor liganded with 1 µM T3. Potency, µM (doses to about 106 µM), for the others: at the highest dose activity change, negative = inhibition, usual class: inhibitors. 0.065% of 280,000 active. AID 1469;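 note: plate controls were bound peptide for no effect and peptide without receptor for full effect; nearly all actives have a fitted effect of over 50% in size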
#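 Fluorescence polarization of 20 nM Texas Red SRC2 peptide (20-aa NR interaction domain) bound to 0.6 uM human TRb ligand-binding domain, with 1 uM T3, after 5 hr at ambient temperature; inhibition seen as decreased polarization.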
# GAA glycogen mod – GAA glycogen-cleavage inhibition or activation. recombinant GAA, glycogen substrate, Amplex Red glucose oxidase fluorescence. 0.38% of 300,000 active. Potency, µM (top dose mostly 76.4 µM), without a hit: at the top dose activity change, negative = inhibition, hits mostly inhibitors. P10253;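 note: 0% = full enzyme reaction and -100% = no-enzyme basal signal; the screen sought inhibitors and activators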
#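 Recombinant human enzyme (4 nM); glycogen substrate; 37 C, 40 min, pH 5.0. Readout: coupled glucose oxidase/Amplex Red fluorescence.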
# * marks the source's active call; other numbers are inactive results; i = inactive; · = no result given; & = joins results of further samples; [ ] = remark or other dose. Unless noted, calls come from the whole dose curve; as a rule, active = well fitted curve in the direction sought with a large enough effect; inconclusive = small, poorly fitted or top-dose-only effect, or another doubt; inactive = no such curve, though single readings can be large; an effect the other way counts as inactive or inconclusive. Unless noted, % is set by controls: 0 for no effect and ±100 for the full control effect; potency is the fitted concentration of half-maximal effect. This is a subset; count on the stated rates, not on these rows.
# Screens in order: RECQ1 inh, aGlu spleen mod, GAA inh, TR SRC2 fluor cs, TRb SRC2 PPI, GAA glycogen mod
CC(C)c1ccc(NC(=O)CN(Cc2ccccc2)S(C)(=O)=O)cc1
→ 0%, -5%, -1%, 0%, 4%, -10%
CCOc1ccc(CN2CCNC(=O)C2CC(=O)NCCC2=CCCCC2)cc1 (centres undefined)
→ i, 0%, 12%, -1%, -6%, -10%
CCC(=O)Nc1nc2ccccc2n1CCN(C)C
→ i, -3%, -4%, 1%, -1%, -8%
CC1=C(/C=C/C(C)=N\NC(=O)c2ccncc2)C(C)(C)CCC1
→ 2%, 0%, 1%, 1%, -4%, -13%
CCOC(=O)c1nnn(-c2nc(OC)nc(N3CCCCC3)n2)c1-c1ccccc1
→ 1%, 0%, -3%, -4%, 7%, -1%
COC(=O)c1ccc(C2CC(=O)NC3=C2C(=O)CCC3)cc1 (centres undefined)
→ i, -4%, 0%, 0%, -10%, 8%
S=c1[nH]nc(COc2ccccc2)n1/N=C/c1cccnc1
→ -5%, -6%, 0%, 1%, 0%, 1%
COC(=O)C1=C(C)Nc2nnnn2C1c1cccnc1 (centres undefined)
→ 6%, 2%, -6%, 0%, 16%, -5%
CN(C)c1ccc(/C=N/n2c(COc3ccccc3)n[nH]c2=S)cc1
→ -3%, -13%, -8%, -3%, 0%, -4%
COc1ccc(OC)c(-n2c(-c3cccc(O)c3)n[nH]c2=S)c1
→ -12%, -10%, -15%, 0%, 5%, -14%
C=CCSc1n[nH]c(-c2ccc(OC)cc2)n1
→ -1%, -6%, -1%, 0%, 11%, -7%
Nn1c(SCC(=O)Nc2ccc(S(N)(=O)=O)cc2)nnc1C(F)(F)F
→ -2%, 3%, ·, -3%, 4%, 8%
FC(F)(F)c1cnc(Oc2cccc3ccccc23)c(Cl)c1
→ 2%, -9%, 3%, -2%, -6%, 4%
C1=C(c2ccccc2)Nc2ccccc2N=C1c1ccccc1
→ -4%, -1%, -4%, -4%, 4%, -3%
COCCCC/C(=N\OCCN)c1ccc(C(F)(F)F)cc1
→ 2%&-7%&4%, 7%&-6%&4%&-10%&-16%, -7%&-6%&-1%[15.4 µM], -4%&-2%&1%&-5%&-3%, 2%&7%&-2%&-1%&0%, -1%&-5%&-8%
O=C(NC1(C(F)(F)F)C(=O)Nc2c1c(=O)[nH]c(=O)n2-c1ccccc1)c1cccnc1 (centres undefined)
→ -4%, 2%, 4%, -6%, -6%, 0%

# No new results follow: entries from further up.
# Screens in order: RECQ1 inh, aGlu spleen mod, GAA inh, TR SRC2 fluor cs, TRb SRC2 PPI, GAA glycogen mod
CC(C)c1ccc(NC(=O)CN(Cc2ccccc2)S(C)(=O)=O)cc1
→ 0%, -5%, -1%, 0%, 4%, -10%
CCOc1ccc(CN2CCNC(=O)C2CC(=O)NCCC2=CCCCC2)cc1 (centres undefined)
→ i, 0%, 12%, -1%, -6%, -10%
CCC(=O)Nc1nc2ccccc2n1CCN(C)C
→ i, -3%, -4%, 1%, -1%, -8%
CC1=C(/C=C/C(C)=N\NC(=O)c2ccncc2)C(C)(C)CCC1
→ 2%, 0%, 1%, 1%, -4%, -13%
CCOC(=O)c1nnn(-c2nc(OC)nc(N3CCCCC3)n2)c1-c1ccccc1
→ 1%, 0%, -3%, -4%, 7%, -1%
COC(=O)c1ccc(C2CC(=O)NC3=C2C(=O)CCC3)cc1 (centres undefined)
→ i, -4%, 0%, 0%, -10%, 8%
S=c1[nH]nc(COc2ccccc2)n1/N=C/c1cccnc1
→ -5%, -6%, 0%, 1%, 0%, 1%
COC(=O)C1=C(C)Nc2nnnn2C1c1cccnc1 (centres undefined)
→ 6%, 2%, -6%, 0%, 16%, -5%
CN(C)c1ccc(/C=N/n2c(COc3ccccc3)n[nH]c2=S)cc1
→ -3%, -13%, -8%, -3%, 0%, -4%
COc1ccc(OC)c(-n2c(-c3cccc(O)c3)n[nH]c2=S)c1
→ -12%, -10%, -15%, 0%, 5%, -14%
C=CCSc1n[nH]c(-c2ccc(OC)cc2)n1
→ -1%, -6%, -1%, 0%, 11%, -7%
Nn1c(SCC(=O)Nc2ccc(S(N)(=O)=O)cc2)nnc1C(F)(F)F
→ -2%, 3%, ·, -3%, 4%, 8%

# Part of the list above, tab-delimited:
compound	RECQ1 inh	aGlu spleen mod	GAA inh	TR SRC2 fluor cs	TRb SRC2 PPI	GAA glycogen mod
COC(=O)C1=C(C)Nc2nnnn2C1c1cccnc1 (centres undefined)	6%	2%	-6%	0%	16%	-5%
CN(C)c1ccc(/C=N/n2c(COc3ccccc3)n[nH]c2=S)cc1	-3%	-13%	-8%	-3%	0%	-4%
